# Screening results deposited in PubChem by Sanford-Burnham Center for Chemical Genomics.
# MT1-MMP reporter – inhibitors of MT1-MMP promoter transcription, cell-based, luciferase reporter, luminescence (AID 618); MT1-MMP promoter luciferase reporter cells, luminescence; hit rate 0.62% among 87,000; calls from a first round at 10 µM; hits with a dose series show EC50 in µM;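 active = over half of the reporter light lost at 10 µM or EC50 under 50 µM; inactive = the rest and hits that failed the dose series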;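 also: actives suppress MT1-MMP promoter-driven transcription so potencies describe inhibitors; HT1080 fibrosarcoma cells; overnight exposure; toxic or luciferase-blocking compounds were not removed from the actives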
# Calls only; i = inactive.
SMILES,MT1-MMP reporter
Cc1ccc(S(=O)(=O)Nc2cc(C)c(O)c(S(=O)(=O)c3ccc(C)cc3)c2)cc1,i
COC(=O)c1ccc(C(NC(=O)OCc2ccccc2)/C(=C/[C@@H](C)C(=O)NCc2ccccc2)C(F)(F)F)cc1 (stereo partly specified),i
O=C(CCCN1C(=O)c2ccccc2C1=O)Oc1ccc(Cl)cc1,i
Cc1ccc(NC(=S)NN2CCOCC2)c(C)c1,i
FC(F)(F)c1cccc(-c2noc(CN3CCOCC3)n2)c1,i
COC(=O)C1=C(COc2ccccc2)NC(=O)NC1c1ccc(Br)cc1 (stereo unspecified),i
Cc1ccc(N=c2c([N+](=O)[O-])nn(-c3ccccc3)n2O)c(C)c1,i
COc1ccccc1NC(=S)NCCc1ccc(Cl)cc1,i
COc1ccc2cc3cc(C(=O)NC(C)C)oc3nc2c1,i
CC(=O)C1=C(C)NC(=O)NC1c1cccs1 (stereo unspecified),i
CCC(=O)/C=C1/Sc2ccc(OC)cc2N1CC,i
COc1ccc(OC)c(NC(=O)C2CCN(Cc3cnn(-c4ccccc4)c3-n3cccc3)CC2)c1,i
COc1cc(NC(=O)CCc2c(C)nc3nc(C)nn3c2C)cc(OC)c1,i
C=CCNc1cc(C)oc(=O)c1C(=O)CCC,i
COC(=O)[C@@]1(Cc2ccc(OC)cc2)[C@H]2c3cc(C(=O)N4CCCC4)n(CCCNc4ncc(C(F)(F)F)cc4Cl)c3C[C@H]2CN1C(=O)c1ccccc1,i

# Rewritten with each value named: part of the list above.
Structure: COC(=O)C1=C(COc2ccccc2)NC(=O)NC1c1ccc(Br)cc1 (stereo unspecified)
  MT1-MMP reporter: i

Structure: Cc1ccc(N=c2c([N+](=O)[O-])nn(-c3ccccc3)n2O)c(C)c1
  MT1-MMP reporter: i

Structure: COc1ccccc1NC(=S)NCCc1ccc(Cl)cc1
  MT1-MMP reporter: i

Structure: COc1ccc2cc3cc(C(=O)NC(C)C)oc3nc2c1
  MT1-MMP reporter: i

# Gathered by group, the entries above containing fluorine (3)
SMILES,MT1-MMP reporter
COC(=O)c1ccc(C(NC(=O)OCc2ccccc2)/C(=C/[C@@H](C)C(=O)NCc2ccccc2)C(F)(F)F)cc1 (stereo partly specified),i
FC(F)(F)c1cccc(-c2noc(CN3CCOCC3)n2)c1,i
COC(=O)[C@@]1(Cc2ccc(OC)cc2)[C@H]2c3cc(C(=O)N4CCCC4)n(CCCNc4ncc(C(F)(F)F)cc4Cl)c3C[C@H]2CN1C(=O)c1ccccc1,i

# Next structures follow:
SMILES,MT1-MMP reporter
COC(=O)C1=C(CCc2ccccc2)NC(=O)NC1c1ccc(Br)cc1 (stereo unspecified),i
Cc1ccc(CNC(=O)Cn2cccc2C(=O)c2ccccc2)cc1,i
COC(=O)[C@@]1(C)C[C@@H]1[C@@H](NC(=O)[C@@]1(C)C[C@@H]1[C@@H](NC(=O)[C@@]1(C)C[C@@H]1[C@@H](NC(=O)[C@@]1(C)C[C@@H]1[C@@H](NC(=O)OCc1ccccc1)c1ccccc1)c1ccccc1)c1ccccc1)c1ccccc1,i
O=S(=O)(NCCSc1ccc(Cl)cc1)c1ccc(F)cc1,i
C=CCn1cc(-c2ccc(Cl)cc2)cc(C#N)c1=O,i
O=C(NC1CCCCC1)N1CCN(c2ncccn2)CC1,i
O=c1cc(O)n(-c2ccc(F)cc2)c(=S)[nH]1,i
COc1ccc(-n2nnnc2SCc2nc(N)nc(N3CCOCC3)n2)cc1,i
COc1ccc2nc3oc(C(=O)Nc4ccc(OC)c(OC)c4)cc3cc2c1,i
COC(=O)[C@@H]1C[C@H]1[C@@H](NC(=O)c1cc(C)on1)c1ccccc1,i
CNC(=O)[C@@]1(Cc2ccccc2)C=C[C@@H](C)N1C(=O)OC,i
COc1ccc(CCNC(=O)C2CCN(S(=O)(=O)c3ccc(OC)c(OC)c3)CC2)cc1,i
Cc1ccc(OCc2nnc(SCC(=O)c3cccs3)n2-c2ccccc2)cc1C,i
CCCC(C)C(=O)NCc1ccc2c(c1)OCO2 (stereo unspecified),i
CC1CC(C)CN(C(=O)CSC2=Nc3ccccc3C3=NC(Cc4c[nH]c5ccccc45)C(=O)N23)C1 (stereo unspecified),i
CCN(CC)C(=O)CC(c1ccccc1)c1ccco1 (stereo unspecified),i
O=C(c1cccn2c(=O)c3cc4ccccc4cc3nc12)N1CCN(c2ccccc2)CC1,i
CCOc1ccc(NC(=O)NCCCn2c(C)nc3cc(C)c(C)cc32)cc1,i
CCc1c2c(nc3ccc(OC)cc13)OC(CC)C2 (stereo unspecified),i
COC(=O)COc1ccc(S(=O)(=O)Nc2ccc(C(N)=O)cc2)cc1C,i
CC(=O)c1cccc(N(CC(=O)Nc2ccc(F)cc2F)S(C)(=O)=O)c1,i
O=C(CCn1c(=O)c2sccc2n(CC(=O)OCc2ccccc2)c1=O)NCc1ccccc1,i
Cc1ccc(N2CC(C(=O)Nc3nccs3)CC2=O)cc1Cl (stereo unspecified),i
COc1ccc(-n2c(=S)[nH]c3cc(C(=O)NCCCN4CCCC4=O)ccc3c2=O)c(OC)c1,i
Cc1ccc(S(=O)(=O)N(C)c2ccc(OCC(=O)NCc3ccco3)cc2)cc1,i
Cc1ccc(OC(=O)c2ccccc2P(=O)(O)O)cc1,i
CCOc1ccc(NC(=O)CCSc2nnc(C)s2)cc1,i
CCC/C=C(\CCC)C(NS(=O)(=O)c1ccc(Cl)cc1)c1ccc(C(=O)OC)cc1 (stereo unspecified),i
CO/C([O-])=N/c1c[n+](-c2ccc(Cl)cc2)no1,i
Cc1ccc(CNC(=O)[C@@H]2CCC(=O)N2Cc2ccco2)cc1,i
CCC(=O)N1CCc2cc(S(=O)(=O)CCC(=O)NCCc3ccccc3)ccc21,i
C=CCS(=O)(=O)c1nc2ccccc2s1,i
CCOC(=O)c1c(C)sc2c1N(C(=O)CN(CC)CC)c1cc(Cl)ccc1S2,i
Cc1nc(CC(=O)c2ccc(O)cc2O)cs1,i
CCOc1ccccc1CNC(=O)CCNC(=O)Cn1ccc2ccccc2c1=O,i
Cc1ccc(CN2C(=O)c3ccccc3C2C(=O)NCC2CCCO2)cc1 (stereo unspecified),i
CC(=O)N[C@H](c1ccccc1)[C@@]1(C)C[C@@H]1[C@@H](C)C(=O)Nc1ccc2ccccc2c1,i
COc1ccc(Br)cc1C(=O)Nc1cccc(C)c1,i
COCCn1c(=S)[nH]c2cc(C(=O)NCCc3ccc(OC)c(OC)c3)ccc2c1=O,i
COc1ccc(NC(=O)C(NC(=O)c2ccccc2)C(C)C)cc1 (stereo unspecified),i
COC(=O)[C@@H]1C[C@H]1[C@@H](NS(=O)(=O)c1ccc(-c2ccccc2)cc1)c1ccccc1,i
O=c1cc(-c2ccco2)oc2c1ccc1ccccc12,i
CCOC(CNC(=O)c1cccn2c(=O)c3cc(Cl)ccc3nc12)OCC,i
O=C(CSc1nc(O)cc(=O)n1-c1ccccc1)NC1CCCCC1,i
CCC1=C(OC(=O)N(CC)CC)N2C(=O)OC(=NCC3CC3)[C@]2(C)[C@H]2C1=CC[C@H]1C(=O)N(CC)C(=O)[C@H]12,i
COc1cccc(OC)c1OCCOc1ccccc1OC(C)C,i
COc1ccc(-c2noc(CCC(=O)NC3CCN(Cc4ccccc4)CC3)n2)cc1,i
O=C(Nc1ccc(Cl)c(Cl)c1)N1CC=C(c2ccccc2)CC1,i
COc1ccc(C)cc1S(=O)(=O)N1c2ccccc2CC1C (stereo unspecified),i
Cn1c(SCc2cc(=O)[nH]c3ccccc23)nnc1-c1ccco1,i
COC(=O)C1=C(N)c2c(F)cccc2C1(C#N)c1ccccc1 (stereo unspecified),i
CCC1=C2CC[C@H]3C(=O)N(C)C(=O)[C@H]3[C@H]2[C@@]2(Cc3ccccc3)C(=NCCOC)OC(=O)N2C1=O,i
COCCn1c(C(=O)N2CCCC2)cc2c1C[C@H]1CN(C(=O)c3ccccc3)[C@@](Cc3ccccc3)(C(=O)OC)[C@@H]21,i
Cc1ccc(NC(=O)C2CCN(S(C)(=O)=O)CC2)cc1,i
COC(=O)c1ccc(C(NC(=O)OCc2ccccc2)/C(F)=C/[C@@H](C)C(=O)NCc2cccnc2)cc1 (stereo partly specified),i
COc1ccc2cc3cc(C(=O)NCc4cccs4)oc3nc2c1,i
O=C(c1ccccc1)N1CCC(c2nc(-c3ccc(S(=O)(=O)N4CCOCC4)cc3)no2)CC1,i
CC(C)N=Cc1c(O)[nH]c2ccccc12,i
CCCCN(C(=O)Nc1ccc(OCC)cc1)C1CCN(C(C)=O)CC1,i
Cc1ccc(CN2CCN(CC(=O)NCCCN3CCN(c4ccc(F)cc4)CC3)C2=O)cc1,i

# Random excerpt: 4 entries already listed
SMILES,MT1-MMP reporter
CCOC(=O)c1c(C)sc2c1N(C(=O)CN(CC)CC)c1cc(Cl)ccc1S2,i
COCCn1c(=S)[nH]c2cc(C(=O)NCCc3ccc(OC)c(OC)c3)ccc2c1=O,i
COC(=O)[C@@]1(C)C[C@@H]1[C@@H](NC(=O)[C@@]1(C)C[C@@H]1[C@@H](NC(=O)[C@@]1(C)C[C@@H]1[C@@H](NC(=O)[C@@]1(C)C[C@@H]1[C@@H](NC(=O)OCc1ccccc1)c1ccccc1)c1ccccc1)c1ccccc1)c1ccccc1,i
Cc1ccc(NC(=O)C2CCN(S(C)(=O)=O)CC2)cc1,i

# (further entries)
SMILES,MT1-MMP reporter
CCN(C(=O)c1cc2cc(OC)ccc2oc1=O)c1cccc(C)c1,i
COC(=O)C1=C(C)N(CCCC(=O)O)C(=O)NC1c1cccs1 (stereo unspecified),i
CCC1=C2CC[C@H]3C(=O)N(CC(=O)OC)C(=O)[C@H]3[C@H]2[C@@]2(Cc3ccccc3)C(=NCCOC)OC(=O)N2C1=O,i
C=CCSc1ncccc1C(=O)NCc1ccc(C)cc1,i
CCOc1ccc(NC(=O)Nc2cc(C)ccc2F)cc1,i
CCOC(=O)c1cc2ccccc2n1CCN(CC)CC,i
N#CCSc1nccc(-c2cc(Cl)sc2Cl)n1,i
Cc1ccc(CCNS(=O)(=O)c2ccc(C)cc2)cc1,i
COc1cccc(NC(=O)C2CCN(Cc3cnn(-c4ccccc4)c3-n3cccc3)CC2)c1,i
Nc1ccccc1C#Cc1ccccc1,i
CCCc1c(C)c2c(C)[nH]nc2oc1=O,i
O=C1C2CC=C(Cl)CC2C(=O)N1CCN1CCOCC1 (stereo unspecified),i
CCOC(=O)C1=C(C)N(CCCC(=O)O)C(=O)NC1c1ccccc1OS(=O)(=O)c1ccccc1[N+](=O)[O-] (stereo unspecified),i
Cc1nc2ccccc2n1C1CC(=O)N(Cc2ccccc2)C1=O (stereo unspecified),i
Cn1nc(CC(=O)NC2CCCCCCCCCCC2)c2ccccc2c1=O,i

# Three structures from above, ordered by molar mass, highest first:
SMILES,MT1-MMP reporter
O=S(=O)(NCCSc1ccc(Cl)cc1)c1ccc(F)cc1,i
COc1ccc(Br)cc1C(=O)Nc1cccc(C)c1,i
CC(=O)C1=C(C)NC(=O)NC1c1cccs1 (stereo unspecified),i

# Next records
SMILES,MT1-MMP reporter
Cc1ccc(O)c(-c2cc(C(F)(F)F)[nH]n2)c1,i
Oc1ccc(-c2csc(-c3ccccc3)n2)cc1O,i
COc1ccc(-c2nnn(CC#N)n2)cc1OC,i
COC(=O)[C@@]1(Cc2ccc(F)cc2)[C@H]2c3cc(C(=O)N4CCCC4)n(CCc4c[nH]c5cc(F)ccc45)c3C[C@H]2CN1C(=O)c1ccccc1,i
C[C@]1(C(=O)NCCc2c[nH]c3ccccc23)C=C[C@@H](Cc2ccccc2)N1C(=O)c1ccccc1,i
CCCCSc1nc2ccc(Nc3nc(N4CCOCC4)nc(N4CCOCC4)n3)cc2s1,i
COc1ccc(-c2nc(SCc3ccccc3)n(S(C)(=O)=O)n2)cc1,i
O=C(O)CNC(=O)c1ccc(S(=O)(=O)N2CCOCC2)cc1,i
O=C1C=C(c2cccs2)CC(c2cccs2)C1n1cnc([N+](=O)[O-])c1 (stereo unspecified),i
Cc1ccc2cc(S(=O)(=O)NCCC(=O)O)ccc2c1,i
O=C(NCc1ccc(Cl)cc1)c1cnccn1,i
COc1ccc(Nc2ncc(C(=O)N3CCN(Cc4ccccc4)CC3)c3ccccc23)cc1,i
Cc1nc2ccccc2n1C1CC(=O)N(N(C)C)C1=O (stereo unspecified),i
C#CCCCC(=S)Nc1ccccc1,i
Cc1ccc(OCC(=O)N/N=C/c2cccn2C)cc1,i
Cn1c(=O)c(-[n+]2ccccc2)c([O-])c2ccccc21,i
CC1CC(C)(C)CC2(C1)NC(=S)N(c1ccccc1)N2 (stereo unspecified),i
CN(C)C(=O)N1CCC(C(=O)NCc2ccc3c(c2)OCO3)CC1,i
O=C(/C=C/c1ccc(Cl)c(Cl)c1)n1cccn1,i
O=C(CC1(O)C(=O)N(Cc2ccccc2)c2ccccc21)c1ccc2c(c1)OCO2 (stereo unspecified),i
CCOC(=O)CCC(=O)N1CCOCCOCCN(C(=O)CCC(=O)OCC)CCOCC1,i
O=C(CC12CC3CC(CC(C3)C1)C2)Nc1ccc2c(c1)COC2=O,i
COc1ccc(N2CCN(C(=O)CCc3nc(-c4ccc(C)cc4)no3)CC2)cc1,i
Cc1ccc(CNC(=O)[C@H]2C[C@@H]2[C@H](NP(=O)(c2ccccc2)c2ccccc2)c2ccccc2)o1,i
CCCCC#Cc1ccccc1CC(=O)Nc1ccccc1,i
CCOP(=O)(O)c1ccccc1OCCCCCOc1ccccc1P(=O)(O)OCC,i
CCCCCCN(C(=O)CCCCCN1C(=O)NC(c2ccc(-c3ccccc3)cc2)C(C(=O)OCc2ccccc2)=C1C)C(C(=O)NCCCC)c1ccc(O)c(C(=O)OC)c1 (stereo unspecified),i
COC(=O)c1ccc(C(NC(=O)OCc2ccccc2)/C(C)=C/[C@@H](C)C(=O)NCCc2c[nH]c3ccc(OC)cc23)cc1 (stereo partly specified),i
COC(=O)Cc1cn(-c2ncc(C(F)(F)F)cc2Cl)c2ccccc12,i
COc1ccc(/C=C2\CCc3ccccc3C2=O)cc1Cn1cccn1,i
Cc1sc2ncnc(NCc3ccccc3)c2c1C,i
CC(C)Cn1c(N)c(C(=O)COC(=O)c2cc(C3CC3)nc3ccccc23)c(=O)n(C)c1=O,i
Cn1ncc(C#N)c1/N=C/N1CCCCCC1,i

# A portion of the library, so the mix of outcomes need not match the whole.
